Biofilm kill mix – mixtures killing C. albicans biofilm; C. albicans biofilm persisters + clotrimazole, fluorescence viability; primary screen in compound mixtures of four per well; inhibition, % at 7.6 µM; AID 1242; 120,000 tested, 0.02% active;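 active means inhibition above 30.3% in the primary screen of four-compound pools, then above 30% when the compound was retested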;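 further: compounds exposed to preformed 24 h biofilms for 48 h; the number belongs to the whole pool; some results filed as inactive read as strong as hits; inactives centre near 12; 0% = biofilm with clotrimazole alone and 100% = kill control; retested singly at about 60 µM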
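Probe or stimulus – Clotrimazole 50 µg/mL co-treatment · System – C. albicans biofilms · Schedule – 24 h biofilm formation, then 48 h compound exposure, 37 °C · Evaluation – percent inhibition of biofilm viability · Technique – 2-h Alamar Blue fluorescence, 535/590 nm excitation/emission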
Active calls of the source: *. These rows are one share of the data; count on the stated rates, not on these rows.

SMILES | Biofilm kill mix
Cc1nc(C)c(C(=O)N2CCCC(CCC(=O)NCc3ccc(F)c(F)c3)C2)s1 (stereo not drawn) | 12
COc1cccc(-n2c(N)c(C(=O)Nc3c(C)n(C)n(-c4ccccc4)c3=O)c3nc4ccccc4nc32)c1 | 20
CC(=O)C1=C(C)OC(N)=C(C#N)C1c1cccnc1 (stereo not drawn) | 13
Cc1ccc(CSc2nnc(-c3cnccn3)n2C)cc1 | 12
Cc1nnc(N(Cc2ccco2)C(=O)c2ccc(C#N)cc2)s1 | -2
Cc1ccc(N=c2c([N+](=O)[O-])nn(-c3ccc(Cl)cc3)n2O)cc1C | 5
O=C(Cn1cc([N+](=O)[O-])cn1)NCc1ccco1 | 17
Cc1cc(C(=O)COc2ccccc2Cl)c(C)n1-c1ccc2c(c1)OCO2 | 9
c1c2c(cc3sc(N4CCCCC4)nc13)OCCO2 | 21
O=C(O)/C=C/C(=O)Nc1ccc(Oc2ccccc2)cc1 | 28
CC(C)(C)NC(=O)c1c(F)c(F)c(F)c(F)c1F | 8
CCN(CC)c1ccc(C(=O)NNC(=O)CCl)cc1 | 5
CCCSc1nnc(NC(=O)Cc2ccc(OC)c(OC)c2)s1 | 0
[O-]/C(=C(\C(=S)Nc1cccc2ccccc12)[n+]1ccccc1)c1ccc(OC(F)F)cc1 | 1
COc1cccc(N2CCN(C(=O)Nc3ccccc3Cl)CC2)c1 | 7
CCc1ccc(O)c(-c2cc(C(=O)Nc3cccnc3)[nH]n2)c1 | 4
CC1CN(c2ccccc2)NC1=O (stereo not drawn) | 3
COC(=O)C1=C(C(=O)OC)[C@@H]2N(C)c3ccccc3[C@@]23C[C@@H](C(=O)OC)N(C(=O)c2cc(C)oc2C)C3=N1 | 13
Cc1ccc(NC2(C#N)C(=O)Nc3ccccc32)cc1C (stereo not drawn) | 1
COc1ccc2c(CC(=O)O)cc(=O)oc2c1 | 11
O=[N+]([O-])c1ccccc1-c1ccc(C(=S)N2CCN(c3ccccc3)CC2)o1 | 7
CC(=O)NC(Nc1nc2c(s1)CCCC2)(C(F)(F)F)C(F)(F)F | 8
COc1ccc(C2(C(=O)Nc3ccc(C)cc3)CCOCC2)cc1 | 8
COc1ccc(C(=O)C2CCCN(Cc3sc(N4CCCC4)nc3Cl)C2)c(OC)c1 (stereo not drawn) | 10
O=C(Nc1ccc(Cl)cc1)Nc1ccc(S(=O)(=O)Nc2ncccn2)cc1 | 15

Of the compounds above, 7 have four or more nitrogen atoms:
SMILES | Biofilm kill mix
COc1cccc(-n2c(N)c(C(=O)Nc3c(C)n(C)n(-c4ccccc4)c3=O)c3nc4ccccc4nc32)c1 | 20
Cc1ccc(CSc2nnc(-c3cnccn3)n2C)cc1 | 12
Cc1nnc(N(Cc2ccco2)C(=O)c2ccc(C#N)cc2)s1 | -2
Cc1ccc(N=c2c([N+](=O)[O-])nn(-c3ccc(Cl)cc3)n2O)cc1C | 5
O=C(Cn1cc([N+](=O)[O-])cn1)NCc1ccco1 | 17
CCc1ccc(O)c(-c2cc(C(=O)Nc3cccnc3)[nH]n2)c1 | 4
O=C(Nc1ccc(Cl)cc1)Nc1ccc(S(=O)(=O)Nc2ncccn2)cc1 | 15

Following part
SMILES | Biofilm kill mix
O=C(Nc1nc(-c2cccnc2)cs1)c1ccccc1F | 15
COC(=O)c1ccc(Cn2c(O)c(N=NC(N)=S)c3ccccc32)o1 | 19
C=CCNC(=S)N/N=C(\C)c1cc(OC)c(OC)c(OC)c1 | 5
CCOc1ccc(-c2nnc(-c3ccc(OC)cc3)o2)cc1 | 8
Cc1cc(C)cc(OCC(=O)N2N=C(C(F)(F)F)CC2(O)C(C)(C)C)c1 (stereo not drawn) | -9
CCOC(=O)/C(C#N)=C\c1cc(OC)c(OC)cc1[N+](=O)[O-] | 21
O=C(NCCCO)/C(=C/c1ccc(-c2cccc([N+](=O)[O-])c2)o1)NC(=O)c1ccccc1 | 12
Cn1c(=S)c2[nH]c(SCCN3CCCC3)nc2n(C)c1=O | 13
S=C1NCN(Cc2ccccc2)CN1C1CCCCC1 | 7
CCOc1ccc(CC(=NCCc2ccccc2)C2=C(O)CC(C)(C)CC2=O)cc1OCC | 16
O=C1OCCC1Sc1nnc(-c2ccco2)n1-c1ccccc1 (stereo not drawn) | 6
COc1cccc(C2CC(=O)Nc3c2c(=O)[nH]c2ncnn32)c1 (stereo not drawn) | 6
CC(=O)c1ccc(NC(=S)Nc2ccc3cn[nH]c3c2)cc1 | 12
CC(C)Oc1ccc(CCN=C(N)N=C(N)N)cc1Cl | 7
O=C(COC(=O)c1cc(=O)c2ccccc2o1)NCC1CCCCC1 | 1
CCOc1cc(C(=O)Nc2ccc(S(=O)(=O)NC3=NCCCCC3)cc2)cc(OCC)c1OCC | 12
Cc1cccc(C(=O)N2CCC(=O)N(C(COCc3ccc(Cl)cc3)Cc3ccccc3)CC2)c1 (stereo not drawn) | 22
CCCC(=O)O[C@]1(C(=O)CO)CC[C@H]2[C@@H]3CCC4=CC(=O)CC[C@]4(C)[C@H]3[C@@H](O)C[C@@]21C | 3
O=C1c2ccccc2C(=O)N1/N=C/c1ccc(Oc2ccc([N+](=O)[O-])cn2)cc1 | 6
O=C(C1=C[C@@H](c2csc3ccccc23)C[C@@H](OCCCCO)O1)N1CCN(Cc2ccc3c(c2)OCO3)CC1 | 22
COc1ccc(C)cc1NC(=O)NCc1ccco1 | 10
O=S(=O)(c1cccc(-c2n[nH]c(=S)n2C2CCCC2)c1)N1CCOCC1 | 16
CC(=O)NC(=S)Nc1ccc2oc(-c3cc(F)c(F)cc3Cl)nc2c1 | 13
COc1ccc(S(=O)(=O)N2CCOCC2)cc1NC(=O)COc1ncnc2ccccc12 | 15
Cc1cc(C)n(-c2ccc(C(F)(F)F)cc2[N+](=O)[O-])n1 | 21
(list continues)
SMILES | Biofilm kill mix
Cc1ccc(NC(=O)c2nc[nH]c2C(=O)N[C@@H](CCCCNC(=O)OC(C)(C)C)C(=O)OC(C)(C)C)cc1 | 10
CN(C)CCCN1C(=O)c2cccc3c([N+](=O)[O-])ccc(c23)C1=O | 11
CCC(C)NC(=O)[C@H](CSCc1ccccc1)N1Cc2ccccc2C1=O (stereo partly drawn) | 18
O=C(NNC(=O)c1ccccc1[N+](=O)[O-])c1cccs1 | 12
Cc1[nH]c2ccccc2c1N=Nc1cc(C(=O)O)cc(C(=O)O)c1 | 16
COc1ccccc1CN1CCNC(=O)C1CC(=O)NCc1cn(C)nc1C (stereo not drawn) | 17
COCCNC(=O)c1cc(C)ccc1C | 15
O=C(c1csc2c1CCCC2)N1CCN(c2ccc(F)cc2)CC1 | 11
CCCSc1nnc(NC(=O)Nc2ccccc2OC)s1 | 20
COc1cc2c(cc1OC)[C@@H]1Cc3cc4c(cc3[C@H](C2)N1C)OCO4 | 9
COc1cc(CN=Cc2c(O)n(Cc3ccccc3)c(=S)[nH]c2=O)cc(OC)c1 | 16
Cc1ccc(CSCC(=O)NCc2ccc3c(c2)OCO3)cc1 | 16
O=C(/C=C/c1cn(CC(O)CN2CCCCCC2)c2ccccc12)c1cccs1 (stereo not drawn) | 18
Clc1ccc(-c2nnc(COc3ncnc4sccc34)o2)cc1 | 17
CC(NC(=O)CN(C1CCCCC1)S(C)(=O)=O)c1ccccc1 (stereo not drawn) | 9
CC1=NN(C(=S)Nc2ccccc2)C(c2ccccc2)C1 (stereo not drawn) | 7
CCOCCCNC(=S)NCCCNc1nc2c(C)cc(C)cc2cc1C#N | 33
CCCn1c2ccc(F)cc2c2nnc(NN)nc21 | 11
CC1CCc2c(sc3nc(CSc4n[nH]c(N)n4)[nH]c(=O)c23)C1 (stereo not drawn) | 16
N/C(=N\OC(=O)CCc1ccccc1)c1cccnc1 | 24
COc1ccc(C2CC(c3cccs3)=NN2C(=O)CSc2nncs2)cc1OC (stereo not drawn) | 5
Cc1ccc2cc(CCNC(=O)C(=O)c3c(C)[nH]c4ccccc34)c(=O)[nH]c2c1 | 15
Cc1n(C)c2cc(Cl)ccc2[n+]1Cc1ccccc1 | 18
CC(C)OC(=O)NC(Nc1ccccc1C(=O)O)(C(F)(F)F)C(F)(F)F | 27
CCN(CCCCCN(C)C)Cc1cc2ccccc2o1 | 2

Pulled by structure from above:
SMILES | Biofilm kill mix
CCC(C)NC(=O)[C@H](CSCc1ccccc1)N1Cc2ccccc2C1=O (stereo partly drawn) | 18
CN(C)CCCN1C(=O)c2cccc3c([N+](=O)[O-])ccc(c23)C1=O | 11

Additional compounds follow:
SMILES | Biofilm kill mix
O=C(c1cccc(Br)c1)N1CCN(c2cnn(-c3ccccc3)c(=O)c2Cl)CC1 | -3
COc1cccc(C2CCCN2Cc2nc(-c3cnccn3)no2)c1 (stereo not drawn) | -2
Cc1ccc(SCCC(=O)NC(C(C)C)C(C)C)cc1 | 21
CC(O)CC(C(=O)NNc1ccccc1)C(=O)NNc1ccccc1 (stereo not drawn) | 26
CC(NC(=O)c1cccnc1)C(=O)O (stereo not drawn) | 7
COC(c1ccccc1)c1nnc(CCC(=O)N(C)CCOc2ccccc2)o1 (stereo not drawn) | 4
Cc1c(NC(=O)c2cnn3c2NC(c2ccc(Br)cc2)CC3C(F)(F)F)c(=O)n(-c2ccccc2)n1C (stereo not drawn) | -7
COc1ccc(Nc2nc(-c3cc4cccc(OC)c4oc3=O)cs2)cc1 | 20
COc1ccc(CCNC(=O)C(=O)NCCOc2ccccc2)cc1OC | 14
O=[N+]([O-])c1ccc(Nc2ccc(N3CCOCC3)cc2)c([N+](=O)[O-])c1 | -2
Cc1ccc(S(=O)(=O)N(C)CC(=O)OCC(=O)N2CCCC2=O)cc1 | 2
CC1(C)CC(=O)C(CC2CCCCC2=O)C(=O)C1 (stereo not drawn) | 6
NNC(=O)c1ccc(Cn2cc(Cl)cn2)cc1 | 13
Cc1cc(C(=O)N/N=C/c2ccc([N+](=O)[O-])s2)n[nH]1 | 16
Cc1cc(NS(=O)(=O)c2ccc(NC(=O)CSc3nc4sc(C)c(C)c4c(=O)[nH]3)cc2)no1 | 30
COc1cc(-c2nc(CN3CCN(CC(C)C)C(=O)[C@@H]3C)c(C)o2)ccc1F | 9
Cc1ccc(NC(=O)c2ccc([N+](=O)[O-])o2)cc1S(=O)(=O)N1CCOCC1 | 1
CCOC(=O)N1CCN(C(=O)CN(C)S(=O)(=O)c2ccc3c(c2)c(=O)n(C)c(=O)n3C)CC1 | 26
CCN(CC)CCCN1C=C2C(=O)C(C)(OC(=O)C3CCCC3)C(=O)C=C2C=C1c1ccsc1 (stereo not drawn) | 17
S=C(NCC1CCCO1)Nc1cc(Cl)c(Cl)cc1Cl (stereo not drawn) | 6
COc1ccccc1/C=C/C(=O)Nc1nc(N)n(-c2ccccc2)n1 | 21
NC(=O)c1ccc(NC(=S)NCc2ccco2)cc1 | 23
CC1=NN(c2ccc(Cl)c(C(=O)O)c2)C(=O)C1 | 6
Cc1cccc(C2c3[nH]c4ccccc4c3CCN2Cc2cnn(-c3ccc(F)cc3)c2)n1 (stereo not drawn) | 0
N#C/C(=C1/C(=O)Nc2ccc(Br)cc21)c1ccccn1 | 15

Structures listed so far that contain a cyano group, in the order listed:
SMILES | Biofilm kill mix
CC(=O)C1=C(C)OC(N)=C(C#N)C1c1cccnc1 (stereo not drawn) | 13
Cc1nnc(N(Cc2ccco2)C(=O)c2ccc(C#N)cc2)s1 | -2
Cc1ccc(NC2(C#N)C(=O)Nc3ccccc32)cc1C (stereo not drawn) | 1
CCOC(=O)/C(C#N)=C\c1cc(OC)c(OC)cc1[N+](=O)[O-] | 21
CCOCCCNC(=S)NCCCNc1nc2c(C)cc(C)cc2cc1C#N | 33
N#C/C(=C1/C(=O)Nc2ccc(Br)cc21)c1ccccn1 | 15

(more compounds)
SMILES | Biofilm kill mix
NC(=O)CSc1nc2ccccc2n1-c1ccccc1 | 3
CCOC(=O)C1CCN(c2c(Nc3ccc(C)c(C)c3)c(=O)c2=O)CC1 | 21
COc1ccccc1CNC(=S)NCCc1ccccc1 | 15
CC(=O)Oc1ccccc1-n1c(C)nc(=O)c(-c2ccccc2)c1C | 16
CCN1/C(=C2\C(=O)N(C)C(=S)N2C)C=Cc2ccccc21 | 16
O=C(Cn1cnc2ccccc2c1=O)Nc1ccc(S(=O)(=O)N2CCOCC2)cc1 | 7
NC(=S)NC1CC2CC1C1C=CCC21 (stereo not drawn) | 11
Cc1ccc(S(=O)(=O)Nc2ccc(S(=O)(=O)Nc3cc(C)nc(C)n3)cc2)cc1 | 4
CCOc1ccc(S(=O)(=O)NN2Cc3ccccc3C2=N)cc1 | 0
O=C(COC(=O)CC1CC2CCC1C2)Nc1cc([N+](=O)[O-])ccc1F (stereo not drawn) | 3
COc1ccc(Cl)cc1NC(=O)NC(C)C(C)(C)C (stereo not drawn) | 12
N/C(=N\OC(=O)c1cccc(Cl)c1)c1ccncc1 | 29
CCOC(=O)c1sc(NC(=O)C(OC(C)=O)c2ccccc2)nc1C (stereo not drawn) | 5
COc1ccc(/C=N/NC(=O)c2cc(C(C)(C)C)[nH]n2)cc1COc1ccc(F)cc1F | 7
CC(=O)N1CC=CC1(CC(C)C)C(=O)NCCN1CCOCC1 (stereo not drawn) | 7
N/C(=N\OC(=O)CC(c1ccccc1)c1ccccc1)c1cccnc1 | 21
CSc1ccccc1NC(=O)C(=O)c1c[nH]c2ccccc12 | 11
CCn1c(SCC(=O)NNC(=S)Nc2ccc(C)cc2)nnc1-c1ccc(Cl)cc1 | 7
COC(=O)c1ccccc1NC(=O)CSc1nc(N)cc(=O)[nH]1 | 20
O=C(O)c1cccc(N/N=C/c2ccc(-c3ccccc3)cc2)c1 | 18
O=C(c1cnn(C(=O)COc2ccc(Cl)cc2)c1)c1ccccc1O | 11

High-throughput results from PubChem BioAssay.
